Rango-impB inh – qHTS Assay for Inhibitors of Rango (Ran-regulated importin-beta cargo) - Importin beta complex formation; Rango CFP/YFP FRET sensor + importin beta, 45 min; Potency, µM (highest dose often 92.2 µM), inactives show at the top dose inhibition of complex formation; Importin subunit beta-1 (Homo sapiens), Q14974; 340,000 tested, 0.031% active; active = rising FRET ratio curve, often small or poorly fitted; inconclusive = mostly compound fluorescence or quenching in the first reads; inactive = flat curves in all reads;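 also: potency is read from the fitted curve at half-maximal effect; 0% = DMSO wells and 100% = buffer wells lacking importin beta; nearly all actives have a fitted effect of over 15% in size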
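Inhibition scored from the CFP 486 nm/YFP 530 nm FRET ratio 45 min after adding 0.125 microM importin beta to 50 nM Rango biosensor preincubated 5 min with compound (room temperature, PBS with DTT, Tween-20, BSA). No-importin wells as positive control.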
Rango release inh – qHTS Assay for Inhibitors of RanGTP induced Rango (Ran-regulated importin-beta cargo) - Importin beta complex dissociation | Snurportin-1 (Homo sapiens) + GTP-binding nuclear protein Ran (Homo sapiens) + Importin … | Biochemical FRET Rango-importin beta, RanGTP-induced dissociation | Potency, µM (doses to about 46.1 µM), without a hit: top-dose activity change, negative = inhibition | 340,000 tested, 0.071% active | AID 540253, 2011; active means falling FRET ratio curve, often poorly fitted, with flat reads before Ran was added; inconclusive means other falling curves, or compound fluorescence or quenching; inactive means flat or rising ratio curve;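 also: potency is read from the fitted curve at half-maximal effect; % of control where 0% means no effect; nearly all actives have a fitted effect of over 45% in size; -100% = wells without RanGTP and RCC1; the record marks most hits as doubtful in a second field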
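Two FRET readings bracket the reaction: one 5 min after compound meets Rango–importin beta, another 45 min after RanGTP-RCC1 (0.6 uM Ran, 0.2 uM RCC1, 2 mM GTP) is added. Only the second defines inhibition.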
miR-21 FLuc – qHTS Assay for Modulators of miRNAs and/orActivators of miR-21. HeLa miR-21 FLuc reporter, luciferase, 48 h. Potency, µM (top dose mostly 38.3 µM), inactives show at the top dose reporter change, positive = more light. 340,000 tested, under 10 active. AID 2288, 2010; active = well fitted rising curve with a large enough effect; inconclusive = small, poorly fitted or top-dose-only effect; inactive = no such curve, though single readings can be large or run the other way;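 also: % of control where 0% means no effect; miR-21 action dims this reporter so a rising signal means less miR-21 action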
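Luminescence from a firefly luciferase reporter carrying a miR-21 binding site downstream, stably expressed under a CMV promoter in HeLa cells that make miR-21 endogenously, reports miRNA modulation after 48 h compound exposure up to approximately 40uM final.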
GLA inh pH 4.5 – qHTS Assay for Inhibitors of Human alpha-Galactosidase at pH 4.5. purified enzyme, 4-MU-alpha-Gal fluorescence, pH 4.5. activity change, negative = inhibition, % at 105 µM. 230,000 tested, under 10 active. Alpha-galactosidase A (Homo sapiens), P06280; inconclusive = small, poorly fitted or top-dose-only inhibition, or a rising curve; inactive = flat fitted curve, though single readings scatter; no compound was filed as active;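 also: 0% = full activity with enzyme and -100% = basal without enzyme; dose as in the result columns while the protocol names 77 µM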
Target sequence (P06280 whole entry, looked up): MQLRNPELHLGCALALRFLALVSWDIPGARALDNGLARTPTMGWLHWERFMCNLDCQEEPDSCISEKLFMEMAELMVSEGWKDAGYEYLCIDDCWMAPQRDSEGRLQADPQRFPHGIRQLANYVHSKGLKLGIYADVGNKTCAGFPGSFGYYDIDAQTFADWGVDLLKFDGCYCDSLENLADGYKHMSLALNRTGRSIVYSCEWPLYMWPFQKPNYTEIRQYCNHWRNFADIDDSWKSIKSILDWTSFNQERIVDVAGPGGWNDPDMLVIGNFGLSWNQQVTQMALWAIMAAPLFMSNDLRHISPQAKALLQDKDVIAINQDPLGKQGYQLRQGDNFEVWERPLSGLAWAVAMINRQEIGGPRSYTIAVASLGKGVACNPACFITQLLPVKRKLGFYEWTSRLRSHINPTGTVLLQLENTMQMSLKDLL
* marks the source's active call; other numbers are inactive results; u = inconclusive; x = not tested or not shown; & = joins results of further samples.

SMILES,GLA inh pH 4.5,Rango-impB inh,miR-21 FLuc,Rango release inh
CC(C)C(NC(=O)C(NC(=O)C1OC2OC(C)(C)OC2C2OC(C)(C)OC12)C(C)C)C(=O)O (stereo not given),-4,-1.1%,0%,0%
Cc1cc(C)c(S(=O)(=O)Nc2cccc(-n3cnnn3)c2)c(C)c1,x,-3.9%,0%,-12%
O=C(CSCc1ccc(Br)cc1)N1CCCC1,-2,u,-32%,-14%
CC(=O)NS(=O)(=O)c1ccc(N)cc1,2&-6&1,-4.1%&-0.9%,2%,-5%&4%
CCCNC(=O)COC(=O)CCC(=O)c1ccc(F)cc1,4,-5.4%,-2%,-12%
O=S(=O)(c1ccccc1)c1nc(-c2ccccc2)oc1NCCCN1CCOCC1,x,-2.6%,0%,-3%
Nc1nc2c(ncn2COC(CO)CO)c(=O)[nH]1,-5&-5,-2.1%,-1%,-7%
C/C(=N\NC(=O)c1ccc(Cn2cc(Br)cn2)o1)c1cccc(NC(=O)C(C)(C)C)c1,2,-0.6%,-20%,10%
Cc1ccc(C(=O)Nc2cccc(C(=O)N/N=C/c3ccc(F)cc3)c2)cc1,x,-1.0%,-38%,-1%
Cc1cccc2c(N=NC(=O)C(C)n3cnc4ccccc4c3=O)c(O)[nH]c12 (stereo not given),x,-0.7%,x,5%
CCCCCn1cnnc1SCC(=O)c1c(N)n(C2CC2)c(=O)[nH]c1=O,x,6.8%,x,9%
O=[N+]([O-])c1ccc(Cl)c(S(=O)(=O)n2ccnc2)c1,2,3.3%,-2%,-5%

Going on with the list:
SMILES,GLA inh pH 4.5,Rango-impB inh,miR-21 FLuc,Rango release inh
Cn1c(Br)nc2c1c(=O)n(CC(O)COc1ccccc1)c(=O)n2C (stereo not given),7,0.8%,-2%,-1%
N#CCc1nn2c3c(cnc2c1C#N)C(=O)CCC3,7,u,-10%,u
O=C(c1nnc(Cc2ccc(Cl)cc2)o1)N1CCOCC1,3,-2.8%,-9%,31%
COC(=O)c1ccc(NC(=O)CSc2nnc(Cc3cccn3C)n2-c2ccc(F)cc2)cc1,2,-4.5%,-2%,10%
CCOC(=O)C1Nc2ccc(C)cc2C2C=CCC12 (stereo not given),x,4.0%,x,-6%
O=C(CSc1nnc(C2CC2)n1C1CC1)c1ccc(F)c(F)c1,x,-4.3%,x,-2%
Cc1cc(C)nc(SCC(=O)c2ccc(F)cc2)n1,x,-0.5%,-21%,2%
O=C(C1CC1)N1CCc2cc(Br)cc(S(=O)(=O)N3CCN(c4ccccn4)CC3)c21,-2,-1.0%,-1%,1%
CC(=O)C1=C(NC(=O)c2ccc(F)cc2)CC2C1C2(C)C (stereo not given),4,0.0%,-17%,-3%
COC(=O)N/N=C/c1cc(OC)c(O)c([N+](=O)[O-])c1,-12,1.5%,-8%,-8%
CC(C)C(=O)NC(NC(=S)NC1CCS(=O)(=O)C1)C(Cl)(Cl)Cl (stereo not given),-2,2.4%,-2%,23%
CC1CN(C(=O)COC(=O)c2cccs2)CC(C)O1 (stereo not given),1,0.2%,-6%,2%

Carrying on:
SMILES,GLA inh pH 4.5,Rango-impB inh,miR-21 FLuc,Rango release inh
CCOC(=O)c1c(NC(=O)C2CCCCC2)sc2c1CCN(C(C)C)C2,x,0.3%,9%,-6%
CCOC(=O)C(NC(=O)c1ccccc1)(Nc1cccc(C)n1)C(F)(F)F (stereo not given),1,1.4%,2%,0%
CN1CCCCCC1=NC1=C(C#N)CCCC1,2,2.6%,-1%,-12%
COc1ccc(CNC(=O)CCCn2c(=S)[nH]c3cc4c(cc3c2=O)OCO4)cc1,x,4.8%,-1%,-1%
Cc1nc2ccccn2c1-c1csc(NCc2ccco2)n1,4,-0.6%,2%,-5%
O=C(NCCNS(=O)(=O)c1ccccc1)c1ccc([N+](=O)[O-])cc1,x,0.7%,-1%,-15%
COc1ccc(OCC(=O)Nc2c(C)ccc3nsnc23)cc1,x,-0.3%,-8%,-9%
COc1ccc(C(C#N)=Cc2ccc(NC(C)=O)cc2)cc1,x,u,x,u
Cc1ccc(C(=O)C(C)[n+]2cccc(C(N)=O)c2)cc1 (stereo not given),-3,0.7%,0%,-8%
COc1cc(/C=N/N2C(=O)CSC2=S)ccc1O,-1,5.9%,-3%,-23%
COc1ccc(NC(=O)CSc2nc3sc(C)c(C)c3c(=O)n2Cc2ccco2)cc1,-2,-1.0%,-7%,2%
COc1ccc(CCC(=O)Nc2ccc(N3CCOCC3)cc2)cc1,-10,-1.4%,-5%,-9%

Quoted at random: 2 compounds from above.
SMILES,GLA inh pH 4.5,Rango-impB inh,miR-21 FLuc,Rango release inh
COc1ccc(CCC(=O)Nc2ccc(N3CCOCC3)cc2)cc1,-10,-1.4%,-5%,-9%
Cc1ccc(C(=O)C(C)[n+]2cccc(C(N)=O)c2)cc1 (stereo not given),-3,0.7%,0%,-8%

(cont.)
SMILES,GLA inh pH 4.5,Rango-impB inh,miR-21 FLuc,Rango release inh
COc1cc(OC)c(OC)cc1CNCCNC(=O)c1nonc1N,-2,0.9%,0%,5%
CCCNC(=O)Nc1ccc(NC(C)=O)cc1,-13,-0.6%,-2%,24%
CCOC(=O)c1c(C)[nH]c(C(=O)Nc2ccc(C)c(Cl)c2)c1C,-2,x,-53%,x
CCC(C)NC(=O)C1CCN(S(=O)(=O)c2cccs2)CC1 (stereo not given),6,-3.6%,-2%,0%
Cc1ccc2c(c1)CCCN2C(=O)c1cccs1,7,4.6%,4%,-3%
CCCCCCn1c(CN2CCC(C)CC2)nc2c1c(=O)n(C)c(=O)n2C,-4,-5.0%,-2%,-3%
c1ccc(-c2ccc3c(c2)NCCN3)cc1,6,1.0%,-23%,3%
COc1ccc(CCNC(=O)c2cc(C)oc2C)cc1OC,x,-4.5%,-1%,-2%
O=C(/C=N/O)NCc1cccnc1,1,-0.8%,0%,-1%
Cc1ccc2cc(CN(CCCN3CCOCC3)C(=O)NC3CCCCC3)c(=O)[nH]c2c1C,0,8.1%,-14%,4%
Cc1ccc(NC(=O)CSc2nnc(C)n2C2CC2)cc1S(=O)(=O)N1CCOCC1,x,0.5%,x,-4%
CC(O)CNC(=O)C1CCN(Cc2ccc(OCc3ccccc3)cc2)CC1 (stereo not given),1,-2.1%,-32%,12%

Other entries:
SMILES,GLA inh pH 4.5,Rango-impB inh,miR-21 FLuc,Rango release inh
CCCC(C)NC(=O)COC(=O)c1cccc(NS(C)(=O)=O)c1 (stereo not given),2,0.9%,0%,0%
CCOc1ccc(-n2c(C)c(C(=O)O)c3cc(OC)ccc32)cc1,x,u,6%,-8%
Cc1ccc(-c2cc(C(F)F)n3ncc(C(=O)N4CCCc5ccccc54)c3n2)cc1,4,1.8%,-5%,0%
COc1ccc(-c2cnc(N)nc2-c2ccc(OC)cc2O)cc1,-9,-1.6%,18%,2%
CC(=O)c1c(C)nc(-c2ccc(OCC(=O)Nc3cccc(C)c3C)cc2)n1O,-21,3.1%,0%,0%
CCOC(=O)N1CCN(C(=O)c2ccc3c(c2)N(Cc2ccc(C)cc2)CCS3)CC1,4,u,20%,2%
O=C(NCCCN1CCOCC1)C(=O)NCC1OCCN1S(=O)(=O)c1cc(F)ccc1F (stereo not given),x,7.5%,0%,5%
S=C(NCCc1ccccn1)NC1CC2CCC1C2 (stereo not given),8,-0.2%,-52%,-4%
O=C(CN1C(=O)CCC1=O)NCC12CC3CC(CC(C3)C1)C2,7,-2.2%,-8%,0%
Cn1c(C(=O)Nc2ccc3c(c2)OCO3)cc2sccc21,11,1.2%,-44%,2%
O=S(=O)(N1CCOCC1)n1cnc2ccccc21,5,0.5%,1%,0%
O=C(NCCN1C(=O)S/C(=C\c2ccc(F)cc2)C1=O)C1CCN(S(=O)(=O)c2cccs2)CC1,1,u,-3%,-14%

(list continues)
SMILES,GLA inh pH 4.5,Rango-impB inh,miR-21 FLuc,Rango release inh
CCCCN(c1ccccc1)S(=O)(=O)c1cccc(C(=O)O)c1,7,0.1%,-8%,-2%
O=c1c2cc(NC(=S)NC3CCN(Cc4ccccc4)CC3)ccc2nc2n1CCCCC2,-15,-0.4%,1%,-2%
Cc1cc(Cl)c2oc(C(=O)NCCC3CCCCO3)c(C)c2c1 (stereo not given),x,-0.2%,-62%,20%
CCc1cc(=O)oc2c3c(cc(OCC(=O)NCc4ccco4)c12)OC(C)(C)CC3,x,-2.2%,1%,5%
CCC(=O)Nc1ccc(C(=O)N/N=C/c2ccc([N+](=O)[O-])cc2)cc1,-2,1.4%,-8%,-6%
Cc1cccc(N2CCN(CCCNC(=O)C3CCCN(c4ncnc5c4nc4n5CCCCC4)C3)CC2C)c1 (stereo not given),x,-0.7%,29%,7%
CC(=O)c1cccc(NC(=O)Nc2ccc3c(c2)OCO3)c1,x,-3.2%,-19%,11%
COc1ccc(N2CCN(C(c3cccs3)C(C)NC(=O)C(=O)N3CCCC3)CC2)cc1 (stereo not given),x,2.9%,9%,2%
CC(C)(CNC(=O)C1CCCN1C(=O)c1cccs1)N1CCOCC1 (stereo not given),4,0.2%,6%,-4%
O=C(OCC(=O)c1ccc(Br)s1)c1ccc(O)cc1,x,0.1%,x,-2%
O=C(NCc1ccccc1)C1CCCN(C(=O)c2ccc(F)cc2)C1 (stereo not given),x,1.8%,x,0%
CC(=O)Nc1ccccc1OCC(O)CS(=O)(=O)c1ccc(C(F)(F)F)cn1 (stereo not given),x,0.9%,0%,5%

Look-ups from the list:
Cc1cc(Cl)c2oc(C(=O)NCCC3CCCCO3)c(C)c2c1 (stereo not given) | miR-21 FLuc: -62%
CC(C)(CNC(=O)C1CCCN1C(=O)c1cccs1)N1CCOCC1 (stereo not given) | miR-21 FLuc: 6%
COc1ccc(N2CCN(C(c3cccs3)C(C)NC(=O)C(=O)N3CCCC3)CC2)cc1 (stereo not given) | Rango release inh: 2%
CC(=O)c1cccc(NC(=O)Nc2ccc3c(c2)OCO3)c1 | Rango release inh: 11%

Compound profiles (already shown).
CCC(=O)Nc1ccc(C(=O)N/N=C/c2ccc([N+](=O)[O-])cc2)cc1 across the screens: GLA inh pH 4.5: -2; Rango-impB inh: 1.4%; miR-21 FLuc: -8%; Rango release inh: -6%
O=C(OCC(=O)c1ccc(Br)s1)c1ccc(O)cc1 across the screens: GLA inh pH 4.5: x; Rango-impB inh: 0.1%; miR-21 FLuc: x; Rango release inh: -2%
CC(C)(CNC(=O)C1CCCN1C(=O)c1cccs1)N1CCOCC1 (stereo not given) across the screens: GLA inh pH 4.5: 4; Rango-impB inh: 0.2%; miR-21 FLuc: 6%; Rango release inh: -4%

Additional results follow:
SMILES,GLA inh pH 4.5,Rango-impB inh,miR-21 FLuc,Rango release inh
CN(C)C(=O)COc1ccc2ccc(=O)oc2c1,1,-3.1%,-3%,-10%
CN(Cc1ccon1)C(=O)C1CCC(=O)N(CCc2ccc(Cl)cc2)C1 (stereo not given),x,2.5%,0%,7%
Cc1ccc(S(=O)(=O)c2nc(S(=O)(=O)c3ccccc3)sc2N2CCN(C)CC2)cc1,x,3.7%,3%,1%
CCOC(=O)CC(NC(=O)c1cc2cc(Cl)cc(Cl)c2oc1=O)c1cccc([N+](=O)[O-])c1 (stereo not given),3,u,-9%,-26%
Nc1nc(=S)c2ncn(C3CCCCC3)c2[nH]1,x,2.5%,x,21%
C=CCN=C1NN=C(c2cc(C)n(CC=C)c2C)CS1,7,-2.2%,18%,11%
CCC(=O)N1CCN(C(=O)c2ccccc2)CC1,-2,-0.1%,x,5%
CCOC(=O)CN1C(=O)C(C)(C)Oc2ccc(C(=O)Nc3ccccc3OC)cc21,-4,1.2%,10%,17%
Cn1c(=O)c2ncn(CC(=O)Nc3cc(C(F)(F)F)ccc3N3CCOCC3)c2n(C)c1=O,13,-0.1%,-17%,-2%
Cc1cccc(CC(Cc2nc3ccccc3[nH]2)c2nc3ccccc3[nH]2)c1 (stereo not given),-18,0.9%,19%,5%
Cc1ccccc1-n1nc2c(c1NC(=O)c1cc3ccccc3o1)CS(=O)(=O)C2,x,-2.8%,x,5%

Screening results as filed in PubChem.

These rows are one share of the data; the hit share may differ from the screen's.
